# Source: PubChem BioAssay (National Center for Advancing Translational Sciences (NCATS))
# NS1 inh: qHTS Assay for Inhibitors of Influenza NS1 Protein Function; S. cerevisiae slowed by influenza A NS1, growth recovery by OD600; Potency, µM (titrated, usually from 46.1 µM), inactives show at the top dose activity, positive = more growth; actives 0.4% (n = 270,000); AID 2326, 2010; also: actives are rising curves; nearly all actives have a fitted effect of over 50% in size
#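 Growth recovery, yeast-based: influenza A NS1 expressed in S. cerevisiae causes slow growth, and suppressors are detected by OD600. The parent strain without NS1 is used as positive control.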
# SARS PLpro yeast: qHTS of Yeast-based Assay for SARS-CoV PLP; S. cerevisiae expressing SARS-CoV PLpro, growth rescue; control for the full effect not named in the record; Potency, µM (highest dose often 32.9 µM), inactives show at the top dose activity, positive = growth rescue; actives 0.19% (n = 330,000); also: 0% is about no effect; nearly all actives have a fitted effect of over 55% in size; growth read by luminescence after 48 h
# Cruzain Triton: qHTS Assay for Promiscuous and Specific Inhibitors of Cruzain (with detergent). Cruzipain (Trypanosoma cruzi), P25779. actives 0.43% (n = 200,000). purified cruzain, Z-FR-AMC fluorescence, 0.01% Triton. Potency, µM, for the others: max response, negative = inhibition, hits mostly inhibitors; active = well fitted curve in the direction sought with a large enough effect; inconclusive = small, poorly fitted or top-dose-only effect, or another doubt; inactive = no such curve, though single readings can be large; an effect the other way counts as inactive or inconclusive;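 also: plate controls were neutral wells for no effect and buffer without enzyme for full effect; nearly all actives have a fitted effect of over 40% in size; top concentration of the series not given in the record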
# Target sequence (P25779 123-467 limits assumed): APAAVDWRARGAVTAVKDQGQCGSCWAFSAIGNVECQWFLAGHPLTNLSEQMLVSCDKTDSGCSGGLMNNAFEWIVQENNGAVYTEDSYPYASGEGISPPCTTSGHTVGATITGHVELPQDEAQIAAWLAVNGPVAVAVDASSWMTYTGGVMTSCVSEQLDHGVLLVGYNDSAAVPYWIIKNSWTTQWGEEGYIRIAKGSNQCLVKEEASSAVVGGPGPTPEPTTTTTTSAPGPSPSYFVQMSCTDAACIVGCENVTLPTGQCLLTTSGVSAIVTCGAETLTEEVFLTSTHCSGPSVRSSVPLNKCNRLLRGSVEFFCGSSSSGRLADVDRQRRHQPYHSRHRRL
#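 Enzyme 1.5 nM, Z-FR-AMC 2 uM, NaOAc 100 mM pH 5.5, DTT 5 mM, Triton X-100 0.01%; 15 min RT compound preincubation; kinetic ex360/em450, 60 s delta.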
# 2A StopGo: High Throughput Screening for Foot and Mouth Disease Virus Antivirals. actives 1.2% (n = 410,000). AID 1159524, 2015. Potency, µM (doses to about 57.9 µM), for the others: at the top dose signal change, negative = less light. human cells with a luciferase reporter of 2A StopGo recoding; control for the full effect not named in the record; active = well fitted falling curve with a large enough effect; inconclusive = small, poorly fitted or top-dose-only effect; inactive = no such curve, though single readings can be large or run the other way; tested in HEK293T cells; also: % is scaled to controls: 0 for no effect and ±100 for the full control effect; nearly all actives have a fitted effect of over 45% in size; luciferase light after 4 h
# LASV entry inh: qHTS for Inhibitors of binding or entry into cells for Lassa Virus; Lassa virus pseudotype entry inhibition, cell reporter; control for the full effect not named in the record; actives 1.2% (n = 300,000); Potency, µM (series often up to 37.9 µM), without a hit: top-dose activity change, negative = inhibition, most hits filed as inhibitors; active means well fitted inhibition curve with a large enough effect; inconclusive means small, poorly fitted or top-dose-only effect, or effect the other way; inactive means flat fitted curve, though single readings scatter; tested in HEK293 cells; also: % is scaled to controls: 0 for no effect and ±100 for the full control effect; nearly all actives have a fitted effect of over 50% in size; luciferase read-out
# Cruzain noTriton: qHTS Assay for Promiscuous and Specific Inhibitors of Cruzain (without detergent). actives 2.3% (n = 200,000). purified cruzain, Z-FR-AMC fluorescence, no detergent. AID 1476, 2009. Potency, µM, for inactives: max response, negative = inhibition, actives largely listed as inhibitors; active = well fitted curve in the direction sought with a large enough effect; inconclusive = small, poorly fitted or top-dose-only effect, or another doubt; inactive = no such curve, though single readings can be large; an effect the other way counts as inactive or inconclusive;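 also: plate controls were enzyme without inhibitor for no effect and buffer without enzyme for full effect; nearly all actives have a fitted effect of over 40% in size; top concentration of the series not given in the record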
#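 Purified cruzain at 1.5 nM, pre-incubated 15 min with compound at room temperature in 100 mM sodium acetate pH 5.5, 5 mM DTT, 0.00005% Triton X-100. Reaction started with 2 uM Z-FR-AMC; AMC fluorescence increase over 60 s gives rate.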
# RE007 growth inh: qHTS Assay for Inhibitors of the HIV-1 protein Vpr; S. pombe RE007 Vpr strain, BacTiter-Glo ATP luminescence, 24 h; control for the full effect not named in the record; Potency, µM (doses to about 92.2 µM), without a hit: at the highest dose activity change, negative = less growth; actives 0.21% (n = 360,000); AID 651644, 2012; active = well fitted falling curve with a large enough effect; inconclusive = small, poorly fitted or top-dose-only effect; inactive = no such curve, though single readings can be large or run the other way;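 also: % is scaled to controls: 0 for no effect and ±100 for the full control effect; nearly all actives have a fitted effect of over 50% in size; the assay follows cell death caused by Vpr and the record does not say whether a fall means rescue or toxicity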
#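 Fission yeast strain RE007, carrying one chromosomally integrated HIV-1 vpr copy, was seeded at OD 0.01 in PMG+AL medium with 23 nL pinned compound. After 24 h at 30 °C and 99% humidity, viability was read by BacTiter-Glo luminescence.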
# Marburg entry inh: qHTS for inhibitors of binding or entry into cells for Marburg Virus; Marburg virus pseudotyped entry inhibition, cell reporter; control for the full effect not named in the record; about a third of the inactives were read at about 46 µM; Potency, µM (doses to about 37.8 µM), without a hit: top-dose activity change, negative = inhibition, usual class: inhibitors; actives 1.8% (n = 300,000); AID 540276, 2011; active = well fitted inhibition curve with a large enough effect; inconclusive = small, poorly fitted or top-dose-only effect, or effect the other way; inactive = flat fitted curve, though single readings scatter; tested in HEK293 cells; about a fifth of its hits are not listed in these tables; also: % is scaled to controls: 0 for no effect and ±100 for the full control effect; luciferase read-out
# Starred values were filed as active, the others as inactive; ? = inconclusive; / = not tested or not shown; & = joins results of further samples; [ ] = another dose, or the depositor's remark. Unless noted, calls follow the shape of the dose curve; as a rule, active means well fitted rising curve with a large enough effect; inconclusive means small, poorly fitted or top-dose-only effect; inactive means no such curve, though single readings can be large or run the other way. Potency is read from the fitted curve at half-maximal effect.
SMILES,NS1 inh,SARS PLpro yeast,Cruzain Triton,2A StopGo,LASV entry inh,Cruzain noTriton,RE007 growth inh,Marburg entry inh
CCc1ccc(Oc2nc([N+](=O)[O-])nn2C)cc1,9.9%,4.1%,/,-10.0%,?,/,4.6%,?
O=C(NCCc1cccc(C(F)(F)F)c1)C1CCC(=O)N(Cc2ccc(Cl)cc2)C1 (centres undefined),-7.5%,6.7%,/,-9.3%,-6.8%,/,-0.4%,-19.8%
N/C(=N\N=C/c1ccc(Br)cc1)N/N=C\c1ccc(Br)cc1,6.4%,0.0%,/,-0.5%,?,/,-12.3%,2.9%
CCCCNC(=O)CSc1nc2ccccc2n1S(=O)(=O)c1ccc(Cl)cc1,-9.6%,-3.5%,-1.8%,19.5%,11.7%,-4.1%,19.1%,?
CCc1nnc(NS(=O)(=O)c2ccc(NCc3cc(Br)ccc3O)cc2)s1,10.6%,4.1%,/,2.3%,19.4%,/,30.8%,15.9%
CCCn1c2ccccc2c2cnn(CC(=O)NC3CCC(C)CC3)c(=O)c21 (centres undefined),3.5%,16.3%,/,-2.7%,4.1%[46.1 µM],/,-2.5%,2.2%[46.1 µM]
Cc1ccc(-n2c(SCC(=O)N3CCOCC3)nc(O)cc2=O)cc1,?,-0.1%,/,-7.7%,4.8%,/,1.2%,5.9%
O=C(NCC1(N2CCCCC2)CCCCC1)c1ccc(NS(=O)(=O)c2ccccc2)cc1,/,0.1%,/,-20.5%,-6.0%,/,-14.0%,23.0%
S=C(NCCc1ccccc1)NCc1cccc(Cl)c1,-6.2%,-5.9%,/,32.2%[activator],-4.9%[46.1 µM],/,-18.7%,?
Cc1c(NC(=O)c2ccccc2NC(=O)c2ccccc2)cccc1C(=O)O,7.4%,?,/,12.1%,21.4%,/,-5.0%,0.1%
CSc1ccc(S(=O)(=O)N2CCC(C(=O)NCc3ccccn3)CC2)cc1,-6.5%,-5.3%,/,6.1%,17.2%[46.1 µM],/,7.0%,-1.9%[46.1 µM]
Cc1ccc(NC(=O)CSc2nc(N)c(-c3ccccc3)c(=O)[nH]2)cc1Cl,/,2.5%,/,-9.0%,-20.2%,/,1.8%,-5.9%[46.1 µM]
CCOC(=O)Nc1nn(-c2ccc(C)cc2)c(=O)c(C#N)c1C,/,0.5%,/,4.9%,-1.4%[46.1 µM],/,3.8%,16.6%[46.1 µM]
O=C(c1ccco1)N1CCN(Cc2ccc(Cl)cc2)CC1,-13.7%,-3.9%,-1.7%,-14.2%,3.4%,-6.2%,4.0%,-20.8%[46.1 µM]
COc1cccc(OCCCN2CCN(S(=O)(=O)c3ccc(NC(C)=O)cc3)CC2)c1,-2.1%,0.9%,-4.6%,14.1µM*,8.2µM*,-1.0%,-9.6%,6.51µM*
COc1ccc(OCC(=O)Nc2cc(-c3ccccc3F)nn2-c2ccccc2)cc1,/,/,4.1%,?,-26.9%[46.1 µM],5.3%,/,/
CN(C)C(=O)C(OC(=O)c1ccc2ccccc2n1)c1ccccc1 (centres undefined),6.7%,0.2%,/,-1.7%,-3.4%[46.1 µM],/,-2.7%,5.3%[46.1 µM]
Cc1ccn2c(=O)nc(SCC(=O)Nc3ccc4c(c3)OCO4)nc2c1,/,-0.8%,/,-7.7%,-28.3%,/,13.6%,?
O=S(=O)(Cc1nnnn1-c1ccc(Br)cc1)c1ccc(F)cc1,9.7%,1.5%,/,-12.5%,?,/,0.7%,-13.4%
O=C(Cc1cccc(C(F)(F)F)c1)NCc1ccc(Cl)cc1,-33.7%,-9.9%,-6.0%,-8.8%,-6.1%,-5.3%,-3.1%,-15.3%
O=S(=O)(Nc1ccc(N2CCCCC2)cc1)c1ccccc1F,0.7%,0.5%,/,11.6%,-4.1%,/,3.9%,16.6%
CN1C(=O)Cc2cc(S(=O)(=O)N3CCN(c4cccc(C(F)(F)F)c4)CC3)ccc21,5.9%,-0.4%,/,-26.0%&-22.9%,-1.3%[46.1 µM],/,1.9%,/
O=C(N1CCCCC1)N1CCN(C(=O)N(c2ccccc2)c2ccccc2)CC1,-11.3%,-4.8%,1.4%,/,?,?,3.5%,?
O=C(CCc1ccccc1)NC(=S)Nc1ccc2c(c1)C(=O)OC2,-4.8%,0.0%,/,13.4%,-5.3%,/,9.8%,5.6%
COC1=C(N2CCOCC2)C(=O)c2ccccc2C1=O,0.9%,-1.1%,/,-7.4%,10.3%[46.1 µM],/,-4.1%,1.0%[46.1 µM]
# Further results follow:
SMILES,NS1 inh,SARS PLpro yeast,Cruzain Triton,2A StopGo,LASV entry inh,Cruzain noTriton,RE007 growth inh,Marburg entry inh
Cc1ccc(/C=C2/Sc3ccccc3N(CC(=O)NCCCOC(C)C)C2=O)cc1,-25.0%,-2.5%,-1.2%,0.0%,?,?,-22.4%,3.2%
CC(C)(C)C(=O)Nc1ccccc1C(=O)OCc1cc(=O)n2ccsc2n1,/,/,0.0%,-18.1%,-3.4%[46.1 µM],13.5%,/,/
Cc1n[nH]c(C)c1S(=O)(=O)N1CCCC(C(=O)NCC2COc3ccccc3O2)C1 (centres undefined),-6.7%,11.2%,1.5%,-9.8%,-7.5%,5.2%,7.8%,-3.9%
O=S(=O)(Oc1ccc(Cl)cc1)c1cccc2cccnc12,-37.0%,-3.8%,/,41.3%[activator],?,/,0.5%,?
CCCc1cc(=O)oc2c(C)c3occ(C)c3cc12,-7.1%,2.3%,-1.2%,0.0%,0.4%,-1.1%,-1.4%,35.1%
CCO[C@H]1OC(C(=O)NCc2ccccc2)=C[C@@H](c2ccc(C(F)(F)F)cc2)[C@@H]1CCCO,2.6%,-1.8%,/,-19.7%,/,/,3.4%,/
COc1ccc2oc(C(=O)Nc3nc4ccc(S(C)(=O)=O)cc4s3)c(C)c2c1,/,1.7%,/,?,25.3%,/,-10.7%,-16.6%
COc1ccc(OC)c(CCNC(=O)Cn2cccc2C(=O)c2ccccc2C)c1,/,-2.9%,/,-11.1%,-6.1%,/,-2.5%,?
CSCCC(NC(=O)c1ccc([N+](=O)[O-])cc1Cl)C(=O)OCC(=O)C12CC3CC(CC(C3)C1)C2 (centres undefined),-27.1%,-3.7%,28.2µM*,3.2%,10.6%,25.1µM*,-13.4%,6.4%
COCC1CCN(C(=O)C2CCC(=O)N(Cc3cccc(C(F)(F)F)c3)C2)CC1 (centres undefined),-2.0%,-4.9%,/,14.1%,/,/,4.4%,/
O=C(COc1ccc(Br)cc1)OCc1nnc(-c2ccccc2)o1,-33.7%,-10.9%,-7.1%,1.4%,7.1%,-4.8%,7.7%,-4.3%
CCCc1c(C(=O)N/N=C/c2cccs2)nnn1-c1nonc1N,5.5%,-3.0%,/,6.3%,/,/,5.7%,/
Cc1cc(NC(=O)CSc2nnc(COc3ccccc3)o2)no1,3.1%,-2.2%,1.3%,1.3%,?,-1.5%,4.2%,13.7%
CCCCOc1ccc(-c2nn(-c3ccccc3)cc2C2NC(=O)NC(C)=C2C(=O)OC)cc1 (centres undefined),/,/,-0.9%,-12.1%,?,6.0%,/,/
Cc1ccc(-c2nc(CSCC(=O)N3CCCC3)c(C)o2)cc1,4.4%,0.8%,0.4%,-23.5%,0.7%,5.5%,-5.1%[3.69 µM],-1.7%
O=C(Cc1ccccc1)Nc1c(C(=O)N2CCOCC2)cnn1-c1ccccc1,3.8%,3.7%,3.5%,/,-2.3%,-5.8%,-14.4%,16.8%
CCC(CC)NCC(O)COc1ccc(Br)cc1 (centres undefined),0.7%,-1.3%,/,-8.0%,?,/,-2.1%,?
CCOc1ccc(NC(=O)COc2ccc(S(=O)(=O)N3CCCC3)cc2)cc1,-37.7%,-3.3%,/,-15.3%,-9.9%,/,-6.9%,23.2%
COc1ccc(-n2c(SCC(=O)N3CCOCC3)nc3ccccc3c2=O)cc1,7.2%,18.1%,/,?,-0.4%,/,-19.9%,4.2%
Clc1ccc(-c2nnc(-c3ccc(Br)o3)o2)c(Cl)c1,-14.8%,-3.7%,15.3%,61.1%[activator],-26.0%,-10.6%,13.7%,?
Cc1cc(C)c(S(=O)(=O)NCC2CCC(C(=O)NCCCN3CCOCC3)CC2)c(C)c1 (centres undefined),-5.2%,-1.4%,5.2%,-24.3%,-4.7%,3.2%,-19.4%,?
Cc1cc(NC(=O)CSc2nnc(C)c(=O)n2N)no1,/,0.6%,/,6.4%,-2.1%[46.1 µM],/,13.9%,2.7%[46.1 µM]
Clc1ccc(CO/N=C2\CCCc3nonc32)c(Cl)c1,-20.9%,-18.4%,-4.8%,-7.6%,-6.5%,-22.6%,0.0%,0.5%
O=C(Nc1nnc(Cc2ccccc2)s1)C1CCC1,-15.4%,9.3%,/,-7.5%,/,/,2.4%,/
CCC(=O)NC1CC2CCCC(C1)N2Cc1ccc(C)cc1 (centres undefined),4.0%,-0.2%,/,-9.4%,/,/,7.0%,/
CNC(=O)CCn1nc(-c2ccc(Cl)cc2)c2ccccc2c1=O,-14.3%,1.5%,-3.8%,-20.8%,10.3%,1.6%,11.6%,5.7%
COc1ccccc1NC(=O)c1c(NC(=O)c2ccccc2Cl)sc2c1CCC2,/,/,0.5%,-20.4%,7.8%[46.1 µM],14.8%,/,/
CC(NC(=S)NC(=O)c1cccs1)c1ccccc1 (centres undefined),/,?,/,-15.2%,?,/,-1.9%,?
CC(=O)c1cc(F)ccc1OCC(=O)N1CCN(c2ccc(F)cc2)CC1,-2.0%,0.2%,/,0.0%,0.4%,/,5.7%,-7.7%
CCCNC(=O)C1CCC(Cn2c(=O)c3sccc3n(CC(=O)Nc3ccccc3C)c2=O)CC1 (centres undefined),/,/,-1.8%,-6.7%,22.1%[46.1 µM],12.9%,/,/
